# Screens deposited in PubChem BioAssay by several laboratories.
# ALR inh – inhibitors of human sulfhydryl oxidase ALR; P55789; purified ALR, DTT oxidation, H2O2 HRP-luminol luminescence; inhibition, % (test concentration not listed); actives 3.8% (n = 290,000);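 active means mean and each replicate at 75% or more; inconclusive means only one of the two met; inactive means neither met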;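 further: stock transfer was 7.5 nL into about 7.5 µL; 0% = neutral wells and 100% = wells with inactivated enzyme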
# Target sequence (P55789 whole entry, looked up): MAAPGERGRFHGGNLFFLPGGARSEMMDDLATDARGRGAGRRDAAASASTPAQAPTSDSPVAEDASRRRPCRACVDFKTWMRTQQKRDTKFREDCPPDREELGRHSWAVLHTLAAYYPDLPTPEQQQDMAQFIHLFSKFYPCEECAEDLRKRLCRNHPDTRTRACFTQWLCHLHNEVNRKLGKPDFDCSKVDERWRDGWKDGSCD
# Beta cell apopt – blocks beta cell apoptosis; INS-1E cytokine-induced death, ATP luminescence, 48 h; percent of positive-control rescue, neutral wells zero; protection from apoptosis, % (no concentration beside the values); actives 0.8% (n = 300,000);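 active means all replicates at 75% or more, or half of them and the mean; inconclusive means half reach 75% but not the mean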;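 further: 0% = cytokine-treated negative control wells and 100% = positive control rescue; higher means more ATP so stronger rescue from cytokine killing; wells of about 40 µL received 100 nL stock; the first replicate is given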
# B2AR ag – human beta-2 adrenergic receptor agonism by FAP; AID 504454; actives 0.43% (n = 340,000); response, % (no concentration beside the values); Am2.2-beta2AR cells, FAP receptor internalization, flow cytometry; reference of the scale not given here;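 active means response above a set limit, near 3 SD of response in nonfluorescent compounds, cut at about 42% in these data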;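 further: stock transfer was 100 nL into about 11 µL; a reference agonist was the positive control; negative values mostly stem from fluorescent compounds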
# Target sequence (P07550 whole entry, looked up): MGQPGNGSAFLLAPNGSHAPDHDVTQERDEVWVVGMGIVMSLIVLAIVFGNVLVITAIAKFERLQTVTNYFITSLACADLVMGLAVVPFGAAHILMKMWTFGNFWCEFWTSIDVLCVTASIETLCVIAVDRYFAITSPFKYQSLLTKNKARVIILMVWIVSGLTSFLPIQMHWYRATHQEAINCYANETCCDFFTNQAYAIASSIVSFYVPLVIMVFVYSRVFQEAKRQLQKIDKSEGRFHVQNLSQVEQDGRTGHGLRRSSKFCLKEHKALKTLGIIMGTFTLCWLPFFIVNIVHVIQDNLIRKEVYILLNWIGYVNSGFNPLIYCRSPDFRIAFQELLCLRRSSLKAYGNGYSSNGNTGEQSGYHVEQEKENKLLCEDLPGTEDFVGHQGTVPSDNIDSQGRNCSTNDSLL
# Calb FLC – C. albicans growth modulation with fluconazole. actives 0.57% (n = 300,000). growth inhibition, % (no concentration beside the values). C. albicans CaCi-2 (fluconazole-resistant clinical isolate) + fluconazole, Alamar Blue growth, 48 h. AID 1979;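 active means most replicates above 75%; inconclusive means exactly half above 75%; inactive means most below 75%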;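 further: all wells also contain fluconazole at 8 µg/ml as a sub-toxic cotreatment; 0% = median of DMSO wells and 100% = median of geldanamycin control wells; wells of about 8 µL received 7.5 nL stock; the first replicate is given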
# T cruzi repl – blocks replication of Trypanosoma cruzi; actives 1.4% (n = 300,000); T. cruzi beta-gal in NIH3T3, luminescence, 90 h; AID 1885; inhibition, % (concentration not given with the values);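 active means mean inhibition across valid replicates above about 55%, limit read from the data; inconclusive means mean below that limit but half or more replicates reach it; inactive means mean below it, under half of replicates reach it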;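 further: signal also drops with host cell toxicity which is not excluded here; 0% = plate median of DMSO wells and 100% = zero luminescence signal; higher percent means less beta-gal luminescence so fewer parasites; stock transfer was 50 nL into about 50 µL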
# A1 inh – inhibitors of the anti-apoptotic protein A1, read as caspase activation; MEF A1-2A-BIM cells, Caspase-Glo 3/7 luminescence, 3 h; percent of clofoctol response, vehicle zero; caspase activation, % (concentration not given with the values); actives 0.066% (n = 330,000); AID 2462;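 active means over half of replicate activation scores above 10%, or exactly half above 10 with the replicate mean above 10; inconclusive means replicate mean below 10 yet half the replicates above 10; inactive means over half of replicates below 10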;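 further: wells of about 30 µL received 50 nL stock; many hits fall short of the cut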
# Ecoli rRNA inh – inhibitors of bacterial rRNA selective over humanized ribosomes; E. coli WT GFP vs humanized-ribosome RFP mutants, fluorescence, 24 h; active compounds read low; DMSO median 0, no signal -100; GFP signal change (wild-type ribosome), % (concentration not given with the values); actives 1.6% (n = 350,000); AID 720706;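 active means significant combined selectivity score with lowered wild-type GFP, culture density cut under 30%, mutant RFP and density less affected; inactive means any of these conditions unmet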; further: one replicate is shown; some compounds called inactive have numbers as strong as hits
# LANA-H2B inh – blocks KSHV LANA binding to histone H2A/H2B. Q9QR71. cell-free LANA-H2A/H2B peptide, fluorescence polarization. inhibition, % (concentration not given with the values). actives 0.6% (n = 320,000); in the data active means inhibition mostly above about 10%, no sharp cut-off; inactive means mostly below about 6.7%;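 further: stock transfer was 7.5 nL into about 10 µL; 0% = median of vehicle wells and 100% = median of positive control wells; one replicate is shown; the record names a cut of 25% in any replicate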
# Ecoli rRNA inh OD600 – also measured in Ecoli rRNA inh; calls as there; OD600 change, %; measured here: OD600 growth;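 optical density of the mix in the first replicate; 0 = DMSO median and -100 = no signal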
# Ecoli rRNA inh RFP – recorded beside Ecoli rRNA inh, whose call it bears; RFP signal change, %; measured here: RFP humanized mutant strains;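 first replicate; 0 = DMSO median and -100 = no signal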
# Starred values were filed as active, the others as inactive; ? = inconclusive; . = not tested or not shown.
SMILES,ALR inh,Beta cell apopt,B2AR ag,Calb FLC,T cruzi repl,A1 inh,Ecoli rRNA inh,Ecoli rRNA inh OD600,Ecoli rRNA inh RFP,LANA-H2B inh
O=C(CN1CC(c2ccccc2)CC1=O)Nc1ccc2c(c1)OCO2 (centres undefined),-22.6,-19.3,1.7,1.7,1.8,-0.7,5.9,3.9,2.6,0.4
CCCOC(=O)c1[nH]c2c(c1C)C(=O)CC(c1cccs1)C2 (centres undefined),-2.3,12.2,26.0,4.3,46.9,?,.,.,.,5.6
CSc1ccc(CN2CCC(CO)(Cc3ccc(Cl)cc3)CC2)cc1,-3.8,0.4,39.8,-11.6,34.4,-0.3,-22.8,-37.0,7.0,-13.2
CC[C@]12CCCN3CCc4c(n(c5ccccc45)C(=O)C1)C32 (some centres undefined),.,-11.9,.,.,11.8,-1.1,.,.,.,-1.7
O=C(Nc1ccc(O)cc1)c1cccc(Oc2ccc([N+](=O)[O-])cc2)c1,98.8*,1.1,-5.6,-3.5,14.1,0.7,-24.9,-24.1,-2.3,-6.1
Cc1ccc(C(=O)NCC(=O)OCC(=O)c2ccc3c(c2)OCCO3)cc1C,5.4,-4.0,-6.6,20.0,-9.2,-0.2,.,.,.,-0.5
Cn1c(SCC(=O)c2ccc(F)cc2)nnc1-c1ccccn1,-6.4,-1.5,-14.9,-8.9,3.0,0.7,2.1,0.1,1.3,-1.1
O=[N+]([O-])c1cccc(/C([O-])=C(/C(=S)Nc2ccccc2F)[n+]2ccccc2)c1,66.2,6.9,0.8,15.2,-4.6,-0.9,5.0,13.1,6.7,3.5
NNC(=O)c1cnn(Cc2ccccc2)c1N,25.8,-9.1,-2.2,1.3,-14.0,-0.1,.,.,.,-2.7
COC(=O)C1=C(C(=O)c2ccccc2)C(c2ccc(O)c(OC)c2)n2nnnc2N1 (centres undefined),8.1,-6.7,-1.7,.,.,0.4,.,.,.,4.3
COc1ccc(C(=O)Nc2ccc3c(c2)n(C)c(=O)n3C)cc1OC,-5.4,-5.6,5.3,-0.1,-7.6,-0.9,-1.3,3.5,-0.4,1.3
CCOC(=O)c1oc2c(CN3CCN(C)CC3)c(O)ccc2c(=O)c1-c1ccc(Br)cc1,-3.0,0.9,-0.9,4.4,4.6,-0.4,-5.9,-6.5,10.5,0.5
CCCCCCCCCC[N+](C)(C)CC/C=C1/c2ccccc2Sc2ccc(Cl)cc21,-0.5,91.4*,1.5,?,46.7,2.7,.,.,.,-3.8
O=C(CSc1ccc(-c2ccco2)nn1)NCc1ccc(F)cc1,4.9,-0.8,-2.6,2.1,-13.5,0.4,.,.,.,1.6
Cc1nc(Nc2ccccc2)sc1C(=O)c1ccc(F)cc1,.,.,-0.5,-8.9,6.3,-0.1,-68.4,-80.6,-23.1,11.3
Cc1ccc2nc(-c3ccccc3)cc(C(=O)N3CCc4ccccc4C3)c2c1,1.8,-6.3,0.7,2.3,47.5,-0.6,-2.1,-2.6,1.7,2.3
Cc1cc(NC(=O)c2cc3ccccc3o2)cc(C)c1OCC(=O)N1CCOCC1,0.4,6.5,-2.1,-5.2,-5.3,0.1,.,.,.,-3.3
CCCc1cc(=O)[nH]c2nnc(SCC(=O)Nc3nnc(SCC)s3)n12,.,1.9,-2.6,1.8,1.9,0.3,5.6,13.3,-2.1,.
O=C(CCc1nc2ccccc2c(=O)[nH]1)Nc1nnc(SCc2ccccc2)s1,-12.6,-4.1,10.6,.,4.8,0.6,6.8,2.7,2.0,2.5
O=C(Nc1c(C(=O)N2CCOCC2)cnn1-c1ccccc1)c1cccc(F)c1,-4.2,-5.0,4.8,1.2,-13.8,0.2,0.1,-3.1,-4.6,-0.8
O=C(NCc1ccccn1)c1ccc(-c2ccccc2)cc1,0.4,-4.1,0.2,-0.4,12.1,0.0,-20.0,-29.6,-3.6,2.3
COc1cccc(C(=O)NC2=NCCS2)c1OC,-5.4,-10.7,-4.5,-8.8,-13.1,-0.1,.,.,.,-5.7
N=C1C(c2nc(-c3ccc(Cl)cc3)cs2)=C(O)CN1NC(=O)c1ccc(O)cc1,.,0.5,3.3,9.0,3.0,-0.3,13.0,1.6,10.5,5.7
CCOC(=O)c1ccc(NC(=O)N2CCc3ccccc3C2)cc1,-3.3,0.4,12.2,-6.6,1.9,-1.3,-4.1,-36.3,-3.6,3.0
CCc1cccc(C)c1NC(=O)c1cc(C)oc1C,-2.3,-5.4,25.8,-2.2,-5.8,-0.4,2.7,2.5,4.9,1.6
CCCCNC(=O)c1sc(=S)n2c1[nH]c(=O)c1ccccc12,.,4.3,5.2,48.2,-10.8,-0.4,.,.,.,0.4
CC(C)OP(=O)(OC(C)C)C(Nc1ccccc1)c1ccc2c(c1)OCO2 (centres undefined),10.1,-1.8,9.9,-3.0,-24.4,0.3,.,.,.,2.8
O=C(/C=C\c1ccccc1)Nc1nccs1,-11.9,-3.0,1.3,-11.6,11.5,-8.1,.,.,.,-1.5
Cc1ccc(-c2cc(C(=O)Nc3cc(C)ccc3C)[nH]n2)c(O)c1,-15.5,-3.6,5.4,-1.3,-7.8,-0.4,.,.,.,2.4
C/C(=N\NC(=O)CN1CCOCC1)C(C)(C)C,-0.1,-0.6,-5.8,?,-2.8,0.6,18.2,2.4,2.4,-3.2
CCn1nnnc1SCC(=O)NC1CCCC1,1.7,-3.9,-2.6,-0.5,-12.6,-0.1,.,.,.,-1.0
Cc1cc(NC(=O)C(C)SCC(=O)OCc2ccc(Cl)cc2Cl)no1 (centres undefined),.,-1.4,-2.7,.,.,-0.2,0.6,-28.2,0.9,2.2
Cc1ccc(OCC(=O)Nn2cnc3ccccc32)cc1,-7.0,.,-3.5,7.3,-27.3,-0.1,.,.,.,-5.9
Cn1c(=O)c(C(=O)CN2CCN(S(=O)(=O)c3ccccc3)CC2)c(N)n(Cc2ccccc2)c1=O,.,2.0,0.1,-0.5,-13.9,1.0,.,.,.,-4.4
O=C(C[n+]1ccc2ccccc2c1)c1ccc(NC(=O)c2ccccc2)cc1,16.5,-10.2,-12.8,-36.8,24.4,0.1,.,.,.,-2.8
COc1cccc(C(=O)NCC(=O)N/N=C/c2c(C)[nH]c3ccccc23)c1,3.1,-9.4,4.6,-34.0,3.5,-1.4,-5.6,-6.3,-0.4,-1.1
COc1cc(-c2nnc(SCC(=O)N3CCOCC3)o2)cc(OC)c1OC,-1.5,0.4,1.3,-1.7,-4.1,0.0,5.4,2.5,-3.1,0.2
O=c1[nH]c(CN2CCN(Cc3ccc4c(c3)OCO4)CC2)nc2ccccc12,-1.3,-0.7,-82.8,21.6,32.7,0.0,.,.,.,3.7
O=C(c1ccccc1F)N1CCN(Cc2ccc3c(c2)OCO3)CC1,1.4,-3.0,-19.5,-6.2,3.5,0.4,3.8,1.1,0.3,-5.6
CC(C)CCn1c(Oc2ccc(Cl)cc2)nc2c1c(=O)n(C)c(=O)n2C,-14.5,-16.1,40.2,-1.0,36.7,-0.2,.,.,.,1.7
NC(=O)N/N=C/c1ccc([N+](=O)[O-])o1,-7.3,-5.0,3.4,.,.,?,.,.,.,1.2
COc1ccccc1NC(=O)NN1CCCCC1,1.7,-2.4,-0.1,-9.9,-5.2,0.4,-2.3,-1.2,-1.3,1.7
CCOC(=O)c1ccc(NS(=O)(=O)c2ccc(-c3coc(C)n3)cc2)cc1,-2.3,-2.8,-5.1,4.7,-16.7,-0.3,1.2,8.3,-1.8,-2.0
Cc1nnc(SCc2ccc(F)cc2)s1,-16.0,-15.8,-1.4,-7.2,-9.1,-1.5,.,.,.,1.7
COc1ccc(CCNC(=O)CN2CCN(Cc3ccccc3F)C2=O)cc1OC,.,-1.8,4.5,0.8,7.4,1.4,7.8,5.8,0.7,2.2
CCn1c(=O)c(C(=O)NCc2ccc(OC)c(OC)c2)c(O)c2ccccc21,-0.7,4.7,-3.2,-10.7,-13.2,0.4,.,.,.,-0.3
CCOc1ccc(S(=O)(=O)Nc2ccccc2C(=O)N(C)C2CCN(C)CC2)cc1,.,-3.8,5.7,.,.,1.2,4.8,4.1,-0.5,0.5
CN(C)c1ccc(NC(=O)Cc2ccccc2)c2ccccc12,35.7,-4.0,-1.0,-2.4,-9.3,1.5,-2.0,-5.9,-1.3,-1.8
Cc1ccc(CN(C)C(=O)c2cc(Br)c(Br)s2)o1,20.9,-15.9,-7.3,-13.0,-2.8,-0.5,-3.4,2.6,-3.4,-4.8
CCC(c1ccccc1)c1nc(-c2ccccn2)no1 (centres undefined),-1.5,-6.5,40.0,4.1,-2.2,-0.6,.,.,.,-4.2
CC(=O)c1cccc(NC(=O)NNC(=O)c2ccc(Cl)cc2Cl)c1,9.8,-10.1,-7.7,-11.9,-10.3,0.1,-0.4,-2.5,-0.5,2.6
CC(C)(C)c1ccc(C(=O)NC2CCS(=O)(=O)C2)cc1 (centres undefined),.,-4.4,3.6,-2.5,-6.7,-1.3,-2.6,-12.0,-1.1,2.4
Cc1ccccc1CS(=O)(=O)Cc1ccc(C(=O)NCc2ccccn2)o1,-2.6,-1.4,-7.6,-5.2,-2.8,0.2,.,.,.,0.0
CCN(C(=O)CSc1nc2nc(C)cc(C)n2n1)c1cccc(C)c1,-1.7,8.7,-13.9,2.6,7.7,0.5,.,.,.,-2.0
CCn1c(SCC(=O)N2CCCc3ccccc32)nnc1-c1ccco1,0.1,-11.8,-5.2,-3.8,-0.4,0.0,.,.,.,-2.2
COc1ccc(OC)c(S(=O)(=O)N(C)CC(=O)N2CCN(c3ccc(F)cc3)CC2)c1,28.0,4.8,-16.1,5.6,-6.7,-0.1,.,.,.,-4.6
O=c1c2ccccc2nnn1CSc1nnc2sc3ccccc3n12,-1.4,2.0,.,-11.5,-1.7,-5.1,.,.,.,-0.4
COC(=O)c1ccc(CSc2nc(-c3ccccc3)cs2)o1,.,-0.3,-3.7,20.4,-14.3,-1.8,-23.4*,-12.8*,-0.7*,-0.7
O=S1(=O)CCC(N2CCOCC2)C1 (centres undefined),-4.8,0.7,3.5,0.4,-8.5,0.9,.,.,.,-0.8
CC(C)c1ccc(NC2CCCN(C(=O)c3ccsc3)C2)cc1 (centres undefined),98.4*,0.4,5.9,-0.8,12.4,0.0,-5.1,-28.2,-6.8,-7.8

# Later entries.
SMILES,ALR inh,Beta cell apopt,B2AR ag,Calb FLC,T cruzi repl,A1 inh,Ecoli rRNA inh,Ecoli rRNA inh OD600,Ecoli rRNA inh RFP,LANA-H2B inh
CC(NCC(=O)Nc1ccccc1C(=O)NC1CC1)c1cccs1 (centres undefined),0.9,1.1,-3.1,.,.,1.0,1.6,0.2,2.3,3.2
CCOC(=O)N1CCC(N2C(=O)c3ccc(C(=O)NCCC(C)C)cc3C2=O)CC1,-4.2,-2.8,-5.9,0.9,-12.0,-0.4,10.5,15.2,0.1,-0.2
O=C(c1ccc(Cl)cc1Cl)C1(n2cncn2)Oc2ccccc2C1O (centres undefined),.,-2.3,8.6,-21.0,54.9*,-0.2,.,.,.,1.4
Cc1ccc(S(=O)(=O)N(CCC(=O)O)Cc2ccc(Cl)cc2)cc1,-1.6,.,-3.5,12.7,-9.7,0.6,-13.6,-6.1,-3.6,1.1

# Only part of the results is shown; the hit share may differ from the screen's.
